# Assay outcomes from PubChem.
# PKD1 kinase inh: inhibitors of human PKD1 kinase, biochemical, fluorescence polarization. inhibition, %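 (about 10 µM by stock and volumes)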. Serine/threonine-protein kinase D1 (Homo sapiens), Q15139. AID 797, 2007. 0.056% of 200,000 active. PKD1 kinase fluorescence polarization assay;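 active means inhibition of 50% or more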;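 further: controls were vehicle for no effect and a reference inhibitor for full effect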
# Insulin prom inh: inhibitors of insulin promoter-driven GFP, primary screen, imaging, TRM-6 cells (human fetal islet line), eGFP reporter, cell count. AID 1273, 2008. 0.9% of 130,000 active. inhibition, % at 2 µM. reporter expression induced with tamoxifen;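 active means inhibition above the mean plus 3 SD, with well images judged a real hit on visual review, cut at about 60% in these data, passing the limit was not always enough; inconclusive means inhibition over the cutoff but images rejected on review; inactive means inhibition not above the cutoff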
# RGS16-Gao: modulators of RGS16 binding to Galphao, primary screen, biochemical, human proteins, multiplexed bead flow cytometry. Regulator of G-protein signaling 16 (Homo sapiens) + Guanine nucleotide-binding protein …. bead-based flow cytometry RGS16-Galphao binding, fluorescence; actives lie on both sides. binding response (% of control), % at 10 µM. 0.38% of 220,000 active;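 active means below 25% or above 175%, edge rows of some plates excepted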;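 further: Galphao activated by GDP with aluminum fluoride before binding; 100% = wells without compound and 0% = beads without RGS; some results beyond the cut were filed as inactive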
# Target sequence (O15492 whole entry, looked up): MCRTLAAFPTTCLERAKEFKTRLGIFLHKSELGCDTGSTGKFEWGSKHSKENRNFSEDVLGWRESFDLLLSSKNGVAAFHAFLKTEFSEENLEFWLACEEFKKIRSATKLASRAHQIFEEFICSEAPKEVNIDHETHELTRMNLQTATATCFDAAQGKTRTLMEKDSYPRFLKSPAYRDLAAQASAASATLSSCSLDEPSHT
# Target sequence (P09471 whole entry, looked up): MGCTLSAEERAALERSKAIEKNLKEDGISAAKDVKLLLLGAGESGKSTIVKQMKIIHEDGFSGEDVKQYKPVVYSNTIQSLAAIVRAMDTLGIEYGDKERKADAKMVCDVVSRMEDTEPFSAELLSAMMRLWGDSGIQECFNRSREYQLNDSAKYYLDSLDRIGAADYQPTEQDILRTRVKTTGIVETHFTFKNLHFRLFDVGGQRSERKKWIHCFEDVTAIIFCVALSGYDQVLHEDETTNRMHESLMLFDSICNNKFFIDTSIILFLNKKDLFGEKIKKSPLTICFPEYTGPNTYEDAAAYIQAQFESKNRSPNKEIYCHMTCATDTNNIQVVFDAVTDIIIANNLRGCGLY
# GALR2 ag: GALR2 receptor agonists, primary screen, cell-based; Galanin receptor type 2 (Homo sapiens), O43603; GALR2-expressing cells, agonist activation read-out; activation, %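 (tested at 5 µM)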; 0.48% of 140,000 active;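 active means above mean plus 3 SD of all compounds, about 5% in these data, not always enough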;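 further: 0% = vehicle buffer wells and 100% = reference agonist at full effect; tested in CHO reporter cells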
# Target sequence (O43603 whole entry, looked up): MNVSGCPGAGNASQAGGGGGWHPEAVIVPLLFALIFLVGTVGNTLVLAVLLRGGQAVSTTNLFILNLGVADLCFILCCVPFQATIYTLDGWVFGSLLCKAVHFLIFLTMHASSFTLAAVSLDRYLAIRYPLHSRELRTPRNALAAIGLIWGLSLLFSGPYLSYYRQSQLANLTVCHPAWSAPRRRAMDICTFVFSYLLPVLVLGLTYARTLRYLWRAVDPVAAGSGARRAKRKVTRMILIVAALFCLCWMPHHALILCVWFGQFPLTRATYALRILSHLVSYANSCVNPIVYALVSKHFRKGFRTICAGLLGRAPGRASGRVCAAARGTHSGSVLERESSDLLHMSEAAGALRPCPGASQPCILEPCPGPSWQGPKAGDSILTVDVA
# HSV augment: enhancers of HSV replication in host cells, fold increase, host cell viability; HSV replication augmentation in cells; maximum fold increase; 0.005% of 220,000 active; AID 1956, 2009;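 active means peak rise of 1.5-fold or more in the series; inconclusive means self-fluorescent or not available for retest; tested in PC3 cells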;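 further: first round at 10 µM; read as green reporter fluorescence; hits show the peak of a series up to 25 µM; 1 = signal of infected wells without compound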
# Insulin prom inh cell count: recorded beside Insulin prom inh, whose call it bears; normalized cell count, %; measured here: cell count, toxicity; reference of the scale not given here;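 cells exposed to compound for 48 h; stained nuclei by imaging scaled within each plate; lower means fewer cells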
# HSV augment primary fold: further read-out of HSV augment, marked with its call; fold increase; compound at 10 µM; measured here: primary screen fold increase 10 uM; tested in PC3 cells;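 GFP signal in the first replicate; 1 = infected wells without compound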
# * = called active by the depositor; i = inactive; ? = inconclusive; nt = no result given; [ ] = another dose, or the depositor's remark.
SMILES,PKD1 kinase inh,Insulin prom inh,Insulin prom inh cell count,RGS16-Gao,GALR2 ag,HSV augment,HSV augment primary fold
Cc1nnc(NC(=O)C2CCCCC2)s1,-13,-181,42,93,-1.2,i,1
NC12CC3CC(C1)CC(CO)(C3)O2,-4,nt,nt,105,-1.4,i,0.94
Cc1ccc(-c2nn(-c3ccccc3)cc2C=C2C(=O)CC(C)(C)CC2=O)cc1,-5,nt,nt,101,-0.3,i,0.9
CCCNS(=O)(=O)c1ccc(CCC(=O)Nc2ccc3c(c2)OCO3)cc1,6,-31,134,84,-2.8,i,0.9
O=C(CNS(=O)(=O)c1ccccc1F)Nc1ccc(N2CCOCC2)cc1,0,-3,96,102,-2.8,i,0.57
Cc1ccc2c(CC(=O)N3CCc4ccccc43)coc2c1,-6,nt,nt,100,-2.2,i,0.93
Cn1c(SCC(=O)N2CCCc3ccccc32)nnc1-c1cccs1,11,0,102,93,-1.4,i,0.91
CCN(Cc1ccccc1)S(=O)(=O)c1ccc(S(=O)(=O)N(Cc2cccc(OC)c2)CC2CCCO2)cc1 (stereo unspecified),0,-22,141,100,-3.0,i,1.2
COC(=O)C1=C(C)N=C2SCCC(=O)N2C1c1cccs1 (stereo unspecified),0,nt,nt,102,-0.6,i,0.98
O=C(CN1CCCCC1)n1c2ccccc2c2ccccc21,nt,nt,nt,99,nt,i,0.96
O=C(Nc1ccc(-c2nnc3n2CCCCC3)cc1)c1cc2ccccc2o1,-4,19,145,115,-2.4,i,0.87
COc1ccc([N+](=O)[O-])cc1NC(=O)Cc1ccc(Cl)cc1,-7,45,54,94,-1.7,i,1
CC1CC(C(F)F)n2nc(C(=O)O)cc2N1 (stereo unspecified),-7,30,126,99,-1.4,i,0.95
CCn1cc([N+](=O)[O-])nc1C,-11,-44,100,105,-0.8,i,0.97
O=C(c1noc2c1CCCC2)N1CCCCC1,-11,nt,nt,102,-0.5,i,1
Cc1cccc(N2CCN(C(=O)c3ccncc3)CC2C)c1 (stereo unspecified),-3,nt,nt,99,-2.3,i,0.87
Cc1onc(-c2ccccc2Cl)c1C(=O)Nc1ccccc1,-9,22,90,103,-1.3,i,1.2
CCN1CCc2c(sc(NC(=S)NC(=O)c3ccco3)c2C(N)=O)C1,nt,nt,nt,104,nt,?,nt
C=CCNC(=O)c1onc(CSc2cccc(C)c2)c1C(=O)O,-3,46,101,102,-2.8,i,1
CN(Cc1ccc2nonc2c1)Cc1nc(CC2CC2)no1,1,nt,nt,104,nt,i,1.1
Cc1cc(NC(=O)CSc2nc3cc4c(cc3c(=O)n2CCc2ccccc2)OCO4)no1,4,nt,nt,103,-0.1,i,0.67
COc1ccc(C(=O)N2CCN(C(=O)c3ccc(-c4ccccc4)cc3)CC2)cc1OC,-15,41,194,109,nt,i,0.92
CCNc1nc(NCC)nc(OCC(=O)O)n1,nt,nt,nt,101,nt,i,1.2
CNC(=O)c1csc(Cc2c(Cl)sc3ccc(Cl)cc23)n1,nt,nt,nt,112,nt,i,0.89
Cc1c(NC(=O)C2CCCN2S(=O)(=O)c2cccc3nsnc23)cccc1C(=O)O (stereo unspecified),6,nt,nt,110,-1.9,i,0.94
CCCCC(=O)Nc1ccc(C(=O)N2CCN(C)CC2)cc1,-2,23,124,100,-0.3,i,0.81
COC(=O)c1ccccc1NC(=O)CSCC(=O)Nc1ccc(F)cc1,3,nt,nt,106,-1.1,i,1.1
CCOC(=O)C1=C(c2ccccc2)NC(=S)NC1c1cc([N+](=O)[O-])ccc1OC (stereo unspecified),7,-21,120,101,-1.5,i,0.97
Cc1ccc(-n2c(C)n[nH]c2=S)cc1,-5,-28,78,183*[activator],-0.6,i,1.1
O=C1C(=O)N(CCO)C(c2cccc(F)c2)/C1=C(\O)c1ccc(Cl)cc1 (stereo unspecified),-11,19,110,99,-0.2,nt,nt
Cc1ccc(NC(=O)COC(=O)c2ccc([N+](=O)[O-])o2)cc1S(=O)(=O)N1CCCCC1,-7,nt,nt,100,nt,i,0.99
CCc1nc2scc(-c3ccccc3)c2c(=O)n1N,-12,8,38,110,0.3,i,0.94
CCOC(=O)COc1ccc2c(C)cc(=O)oc2c1C(=O)c1ccccc1,-1,0,135,104,nt,i,0.91
O=C(Cn1nnc2ccccc2c1=O)N[C@@H](Cc1c[nH]c2ccccc12)C(=O)O,-4,31,130,104,0.2,i,0.98
O=C(O)CC1SC(=O)N(Cc2ccccc2)C1=O (stereo unspecified),-12,nt,nt,97,0.0,i,1
O=C(CSc1nc2ccccc2c(=O)n1Cc1ccco1)c1ccccc1,-12,29,105,103,-3.1,i,1.1
Cc1ccc2oc(=O)c3cnn(CC(=O)N(CCCN4CCOCC4)Cc4ccco4)c3c2c1,-6,nt,nt,94,-0.9,i,0.82
Cc1ccc(OCCSc2nc(N)cc(N)n2)cc1,-2,42,101,100,nt,i,0.87
COCCNC(=O)c1onc(CSc2ccncc2)c1C(=O)NCCOC,nt,nt,nt,99,nt,i,0.76
COc1ccc(C)cc1NC(=O)C(=O)NNC(=O)c1ccco1,-10,nt,nt,91,-1.4,i,0.69

# Four entries out of the list above, ordered by their value in HSV augment primary fold, rising.
compound	PKD1 kinase inh	RGS16-Gao	GALR2 ag	HSV augment primary fold
Cc1ccc(OCCSc2nc(N)cc(N)n2)cc1	-2	100	nt	0.87
CCOC(=O)COc1ccc2c(C)cc(=O)oc2c1C(=O)c1ccccc1	-1	104	nt	0.91
Cc1ccc(NC(=O)COC(=O)c2ccc([N+](=O)[O-])o2)cc1S(=O)(=O)N1CCCCC1	-7	100	nt	0.99
O=C(O)CC1SC(=O)N(Cc2ccccc2)C1=O (stereo unspecified)	-12	97	0.0	1

# The listing continues:
SMILES,PKD1 kinase inh,Insulin prom inh,Insulin prom inh cell count,RGS16-Gao,GALR2 ag,HSV augment,HSV augment primary fold
COc1ccc(C(=O)N2CCN=C2c2ccccc2)cc1OC,-8,nt,nt,138,-0.2,i,0.69
CN1C(=O)c2ccccc2C(C(=O)NCc2ccco2)C1c1c[nH]c2ccccc12 (stereo unspecified),-2,-10,112,102,-1.1,i,0.84
CCCC(=O)Nc1ccc(NC(=O)c2cccc(OC)c2)nc1,-3,nt,nt,96,-1.6,i,0.89
COC(=O)c1ccc(N2CCCCC2)c(N)c1,5,-15,194,100,nt,i,0.88
Cc1ccccc1C(=O)NC(C(=O)Nc1nc2c(s1)CCCC2)C(C)C (stereo unspecified),-2,-38,77,58,-0.3,i,1
O=C(N1CCN(c2ccccn2)CC1)C(Cl)(Cl)Cl,16,nt,nt,109,-0.7,i,0.97
C=CCSc1nc2ccccc2n1Cc1nnc(-c2cccs2)o1,-3,nt,nt,88,1.3,i,0.81
Nc1c(Cl)ncnc1N/N=C/c1ccncc1,nt,nt,nt,93,nt,i,1
O/C(=C\c1ccc2ccccc2n1)c1ccc(O)cc1O,-4,-143,115,102,nt,nt,nt
O=c1c(-c2nn[nH]n2)coc2ccc(Cl)cc12,-3,12,106,102,nt,i,0.98
CCCCCc1c(O)nc(SCC(=O)O)[nH]c1=O,-1,38,94,nt,1.3,nt,nt
COc1ccc2ccccc2c1/C=N/NC(=S)NCCN1CCOCC1,2,nt,nt,114,nt,i,0.94
COc1ccc(N2CCN(C(=O)CSc3nc4c(c(=O)n(C)c(=O)n4C)n3C(C)C)CC2)cc1,-4,0,86,102,-1.4,i,0.93
CCOc1ccc2cc(C(=O)c3ccccc3)c(=O)oc2c1,-8,19,114,95,-0.1,i,1.1
CCCSc1ncc(Cl)c(C(=O)Nc2ccc(S(=O)(=O)N3CC(C)OC(C)C3)cc2)n1 (stereo unspecified),-7,31,67,101,-0.4,i,0.9
N#CC1(NC(=O)CN2CCN(S(=O)(=O)c3ccccc3F)CC2)CCCC1,nt,nt,nt,99,nt,i,1.2
CCCn1nc(C(=O)NCCc2ccc(S(N)(=O)=O)cc2)c2ccccc2c1=O,-9,nt,nt,101,-0.9,i,0.99
COc1ccc(NC(=O)CN2CCN(c3ccc(Cl)cc3)CC2)c(OC)c1,-12,0,82,107,0.3,i,1.1
CCn1c(SCC(=O)Nc2c(C#N)cnn2-c2ccccc2)nnc1-c1cccs1,nt,nt,nt,102,nt,i,0.83
Cc1cccc(N2CCN(C(=O)CCS(=O)(=O)c3ccc(Br)cc3)CC2C)c1 (stereo unspecified),6,-7,136,108,nt,nt,nt
CNC(=O)NC(=O)COc1c(F)c(F)cc(F)c1F,-10,nt,nt,100,nt,i,0.89
CCN(CC)CCCNC(=O)CSc1nc(C)cc(C)n1,-7,nt,nt,87,nt,i,0.99
Cc1onc(-c2ccccc2Cl)c1C(=O)Nc1ccc(F)c(F)c1,3,-100,38,96,-1.5,i,0.65
CCOCCOc1nc2c(c(=O)n(C)c(=O)n2C)n1Cc1ccc(C)cc1,-16,nt,nt,nt,-1.7,i,0.84
CCOC(=O)C1CCN(c2c(NCc3ccc(C(=O)NC(C)CC)cc3)c(=O)c2=O)CC1 (stereo unspecified),-1,38,117,103,-2.1,i,0.97
CC1(/[N+]([O-])=C/c2ccc(F)cc2)CCCCC1=O (stereo unspecified),nt,nt,nt,92,nt,i,0.93
O=C(Cn1ncc2c(=O)oc3ccccc3c21)N1CCc2ccccc2C1,-12,nt,nt,104,-0.6,i,0.96
NC(=S)NNc1cc(Cl)cc(Cl)c1,2,-49,175,94,-3.3,i,0.95
CCc1nc(SCC(=O)Nc2cc(C)on2)c2c(=O)n(C)c(=O)n(C)c2n1,-11,nt,nt,127,-2.3,i,0.85
O=[N+]([O-])c1cc(C(F)(F)F)cc([N+](=O)[O-])c1NCc1cccnc1,-8,nt,nt,101,0.7,i,0.96
CCOC(=O)c1c(CC(C)C)csc1N,4,nt,nt,108,nt,i,0.99
CN1CCC(OC(=O)c2ccccc2Cl)CC1,-2,nt,nt,89,nt,i,0.98
CNc1nc(C)nc(N/N=C/c2ccccc2)n1,-6,nt,nt,103,nt,i,0.97
COc1cccc(CN2CCNC(=O)C2CC(=O)NCCc2ccccn2)c1 (stereo unspecified),-1,nt,nt,99,nt,i,1.1
CN(C)c1ccc2nsnc2c1[N+](=O)[O-],nt,nt,nt,101,nt,i,0.96
Cn1c(C(=O)N(Cc2ccccc2)Cc2cccs2)cc2sccc21,0,-12,122,96,-1.8,i,1
CC1=CN2C(=N)/C(=C/c3ccc(C)o3)C(=O)N=C2S1,4,nt,nt,99,-0.6,i,1.3
CCCCOC(=O)Nc1ccc(S(=O)(=O)Nc2nccs2)cc1,nt,nt,nt,100,nt,i,1
COc1ccc(C/C(C)=N/NC(=O)c2ccncc2)cc1,-13,0,130,102,-1.4,i,0.95
COc1ccc(NC(=O)Nc2nnc(C(C)C)s2)cc1,9,61,109,77,-2.0,i,0.93
Cc1ccc(S(=O)(=O)N2CCN(CC(=O)NC3CCCc4ccccc43)CC2)c(C)c1 (stereo unspecified),2,0,61,104,-0.5,i,0.81
COc1ccc(S(=O)(=O)NCC2CCCN(C(=O)C=C(C)C)C2)cc1 (stereo unspecified),0,nt,nt,110,nt,i,1.1
O=C(CSc1nc(C2CC2)nc2ccccc12)Nc1ccccc1N1CCOCC1,5,nt,nt,93,nt,i,0.78
CN(C)c1ccc(/C=N/NC(=O)c2cc(=O)[nH]c3ccccc23)cc1,nt,nt,nt,99,nt,i,1
C[C@H]1C=C(C(=O)NCc2nc3ccccc3[nH]2)O[C@@H](OCc2ccc(CO)cc2)C1,nt,nt,nt,79,nt,i,0.95
O=C(CC(C(=O)O)N1CCOCC1)Nc1ccc(Cl)cc1 (stereo unspecified),-2,-21,144,108,-0.1,i,1.2
O=C1C(Cc2cccc([N+](=O)[O-])c2)S/C(=N/N=C/c2ccco2)N1c1ccccc1 (stereo unspecified),-24,-67,73,105,-2.8,i,0.99
O=c1c2c3c(sc2nc2n1CCCCC2)CCCC3,-12,16,81,81,-0.1,i,0.86
Cc1cc(C)n(C(=O)CNC(=O)Cc2ccccc2)n1,-6,58,101,124,-2.9,i,1
COC(=O)c1cccc(-c2ccc(C(c3c(C)[nH][nH]c3=O)c3c(C)[nH][nH]c3=O)o2)c1,-4,nt,nt,90,nt,i,0.97
CCc1nnc(NS(=O)(=O)c2ccc(NC(=S)NC(=O)/C=C/c3ccccc3)cc2)s1,1,44,95,103,4.4,i,1.1
Cc1ccc(S(=O)(=O)NCC(C)NS(C)(=O)=O)cc1 (stereo unspecified),-4,20,146,91,-1.9,i,0.88
